NPYLR7 ag: activates Aedes aegypti NPYLR7 receptor. HEK293T NPYLR7/Galpha15, GCaMP6s calcium fluorescence. activation, % at 10 µM. hit rate 0.15% among 270,000. AID 1259423; in the data active = activation above about 40%;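 note: 0% = vehicle and 100% = reference agonist at the receptor; some compounds past the cut are filed as inactive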
NPYLR7 ag max-min: second read-out of NPYLR7 ag, no call of its own (marks repeat the call); activation, %; measured here: Max-Min RFU normalised activation; some inactives read as strong as hits;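 span of the calcium signal over five minutes; 0% = vehicle and 100% = native peptide agonist; compound fluorescence can raise it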
The depositor's hits bear a star; & = joins results of further samples. An excerpt; the hit share may differ from the screen's.

item	Structure	NPYLR7 ag max-min	NPYLR7 ag
1	O=C1CC2(CCN(Cc3ccc4c(c3)Cc3ccccc3-4)CC2)CN1	0	1
2	c1ccc2c(c1)CCCN2c1nc2ccccc2n2cnnc12	1	2
3	C=CC1=C(C)/C(=C/c2[nH]c(Cc3[nH]c(/C=C4\NC(=O)C(C)=C4C=C)c(C)c3CCC(=O)O)c(CCC(=O)O)c2C)NC1=O	2	3
4	Cc1ccc(C)c(-c2[nH]ncc2CN2CCCn3cncc3C2)c1	12	15
5	CCCCn1c(=S)[nH]c2sc(C)c(C)c2c1=O	9	13
6	CC1CN(c2cc(Oc3ccccc3Cl)ncn2)CCN1C(=O)c1ccc([N+](=O)[O-])cc1 (stereo not given)	8	-7
7	COc1cccc(CC2(C3CCNCC3)NC(=O)NC2=O)c1 (stereo not given)	20	28
8	O=c1[nH]cnc2c1sc1nc(-c3ccco3)c3c(c12)CCCC3	6	7
9	Cc1ccc(S(=O)(=O)Nc2cccc(-c3ccc4nnc(C)n4n3)c2)s1	-8	-13
10	Cc1ccc(NC2CCCN(C3CCN(Cc4ccccn4)CC3)C2)cc1C (stereo not given)	12	19
11	CCCCS(=O)(=O)N1CCN(c2nc3ccccc3nc2C(=O)OCC)CC1	2	11
12	Cc1nn(C(=O)/C=C/c2ccccc2)c(C)c1Sc1ccccc1	0	0
13	Cc1ccsc1CNc1cccc(C(=O)N2CCn3cncc3C2)c1	-6	-4
14	CCc1nnc(CN2CCC3(CCCO3)CCC2=O)o1 (stereo not given)	11	21
15	CC(Sc1nccn1C1CC1)C(=O)Nc1c(F)cccc1F (stereo not given)	7	16
16	O=c1cc(CSc2ncnc3sc4c(c23)CCC4)nc2sccn12	12	15
17	COc1cc(C)ccc1Oc1cc(N2CCN(C(=O)c3ccc([N+](=O)[O-])cc3)C(C)C2)ncn1 (stereo not given)	3	5
18	Cc1noc(C)c1S(=O)(=O)NC(=O)C1(C)CCN1C(=O)Cc1ccc(C(C)(C)C)cc1 (stereo not given)	3	6
19	Cc1cc(OCc2nc(SC3CC(C)OC3=O)n[nH]2)ccc1Cl (stereo not given)	1	1
20	Cc1c(C(N)=O)nnn1-c1ccc(OCc2ccccc2)cc1	-23	-21
21	COCc1ccccc1CNC(=O)c1cc(C)oc1C	3	11
22	c1ccc(-c2ncn(CCCCN3CCCC3)c2-c2cccnc2)cc1	-5	2
23	COC(=O)c1ccc(Cn2cnc([N+](=O)[O-])n2)o1	-3	0
24	Cc1ccc(-n2c(=O)c3ccccc3n(Cc3ccc(C(=O)NCCN4CCOCC4)cc3)c2=O)cc1C	3	-1
25	CC(CO)CN(Cc1ccccc1)C(=O)c1ncccc1O (stereo not given)	17	-1
26	Cc1ccc(C(=O)NC2CCCCNC2=O)cc1NC(=O)c1ccccc1 (stereo not given)	0	1
27	CC(C)c1nccc(-c2c(-c3ccccc3)ncn2C(C)Cc2ccncc2)n1 (stereo not given)	-17	-13
28	Cc1ccccc1C(=O)NNc1cc(=O)n(C)c(=O)n1C	6	11
29	CN(C)c1ccc(NC(=O)C2C[C@H]2c2ccccc2)cc1C(=O)NC1CCCCC1 (stereo not given in full)	-7	-5
30	CCN(Cc1cccs1)C(C)c1nc2ccccc2c(=O)[nH]1 (stereo not given)	-4	-4

The closing 3 entries of the section before lead into the next:
item	Structure	NPYLR7 ag max-min	NPYLR7 ag
28	Cc1ccccc1C(=O)NNc1cc(=O)n(C)c(=O)n1C	6	11
29	CN(C)c1ccc(NC(=O)C2C[C@H]2c2ccccc2)cc1C(=O)NC1CCCCC1 (stereo not given in full)	-7	-5
30	CCN(Cc1cccs1)C(C)c1nc2ccccc2c(=O)[nH]1 (stereo not given)	-4	-4
31	O=C(c1nnc2n1CCN(C(=O)C(c1ccccc1)c1ccccc1)C2)N1CCOCC1	1	2
32	O=C(O)c1cccnc1SC1CC(=O)N(C2CCCCC2)C1=O (stereo not given)	-10	-7
33	CCOC(=O)C1=C(C)OC(=N)C(C(=O)OCC)C1c1ccccc1[N+](=O)[O-] (stereo not given)	0	0
34	COCCN(CC1CCCN(C2Cc3ccccc3C2)C1)C(=O)c1cccnc1 (stereo not given)	2	3
35	COc1c(C)ccc(NS(=O)(=O)c2ccc(Cl)cc2)c1C	-1	-1
36	O=C(NCC1CCOCC1)c1cnc(N2CCNC2=O)o1	-4	-3
37	O=C1CCCN1CCN1CCCC(CCc2ccc(F)cc2)C1 (stereo not given)	-1	4
38	CCN(CC)c1ncnc2c1ncn2[C@@H]1O[C@H](COP(=O)(O)OP(=O)(O)C(Br)(Br)P(=O)(O)O)[C@@H](O)[C@H]1O	-6	5
39	COc1ccc(C(=O)N2CCN(C)C3(CCN(C)CC3)C2)cc1OC	3	8
40	Cc1nc(C)c(C(=O)N2CCC(C(Cc3ccc(F)cc3F)N(C)C(=O)c3cccnc3)CC2)s1 (stereo not given)	2	11
41	Cc1sc2nc(CSc3nc(N)nc(-c4cccs4)n3)[nH]c(=O)c2c1C	4	5
42	CCOC(=O)CCC(=O)N1CCN(c2cc(S(=O)(=O)NCCCN3CCOCC3)ccc2OC)CC1	2	4
43	COc1ccc(OC)c(-c2cncc(N)c2)c1	8	12
44	C=CCNC(=S)N=Nc1c(O)[nH]c2c(Cl)cc(Cl)cc12	0	-1
45	CC(C)N(Cc1nccn1C)C(=O)c1ccc(-c2nnn(C)n2)cc1	1	0
46	CCOc1ccc2ncc(C#N)c(Nc3ccc(OC)c(Cl)c3)c2c1	-7	-2
47	O=c1oc2cc(OCCO)ccc2c2c1CCC2	27	0
48	CCCc1noc(C(C)Nc2ccc(-c3csc(C)n3)cc2)n1 (stereo not given)	7	17
49	O=C(Nc1nc(-c2ccc(Cl)cc2Cl)cs1)c1ccncc1	-10	-4
50	CCOC(=O)CCCNC(=O)N1CCN(c2ccc(NC(=O)c3ccccc3OCC)cn2)CC1	24	18
51	O=C(C=Cc1cccs1)N=C1N=C2C=CC(I)=CN2Cc2ccccc21	-5	-10
52	O=C1c2ccccc2C(=O)C1C1=NNC(c2ccccc2)C1 (stereo not given)	-9	-8
53	COc1ccc(OC)c2sc(N(Cc3ccccc3)C(=O)c3ccno3)nc12	-12	-6
54	N#CC(NC(=O)c1ccnc(C2CC2)n1)c1ccsc1 (stereo not given)	13&-5	22&-4
55	Cc1ccc2sc(-c3ccc(N4C(=O)C5CC=CCC5C4=O)cc3)nc2c1 (stereo not given)	-20	-16
56	COCCN(Cc1ccc(C)cc1)Cc1cccn1Cc1cccc(C(F)(F)F)c1	0	-1
57	OCC(O)C(O)C(O)C(O)C(O)CO (stereo not given)	-10	-5
58	O=C(NCCc1nnc2ccc(SCC(=O)N3CCCC3)nn12)c1ccccc1	-7	6
59	COc1ccc(CCN(C)C(=O)c2cc(C(F)(F)F)cc(C(F)(F)F)c2)cc1OC	-12	-9
60	COc1cc(OC)cc(C2=NC3(CCCC3)N(C(=O)c3ccccc3)C2=S)c1	-5	2
61	Cc1cccc(NS(=O)(=O)c2ccc(Cl)c(C(=O)Nc3ccccc3C(=O)O)c2)c1	-33	-30
62	Cc1ccccc1C(CC(=O)NCCN1CCCCC1=O)c1ccccc1 (stereo not given)	-2	0
63	COc1ccc(NC(=O)c2cn(C)c3c(=O)n(-c4ccccc4)c(=O)[nH]c23)c(OC)c1	0	2
64	CC1CCCCN1C(=O)CC1Sc2ccc(Cl)cc2NC1=O (stereo not given)	2	3
65	Cn1ccn2ncc(C(=O)N3CCn4nc(C(=O)N5CCCC5)cc4C3)c12	-12	-8
66	CC1(C)C(Cl)C(=O)C(=C(O)c2ccccc2)C(=O)C1Cl (stereo not given)	-4	-3
67	COc1ccc2nc(SCC(=O)Nc3c(C#N)c4c(n3CC3CCCO3)CCCC4)[nH]c2c1 (stereo not given)	-3	-2
68	COc1ccc(N2CCN(C(=O)C3CC=CCC3C(=O)NC(c3ccccc3)c3ccccc3)CC2)cc1 (stereo not given)	-13	-6
69	Cc1cc2nc(CN3CCc4onc(-c5ccccc5)c4C3)cc(=O)n2[nH]1	-2	2
70	CSc1ccc(CN2C(=O)C(C)ON=C2c2ccncc2)cc1 (stereo not given)	4	4
71	c1ccc2[nH]c(CCNc3nc(-c4ccncc4)nc4c3CCNC4)nc2c1	-8	-4
72	Cc1noc(C)c1CSCC(=O)N1CCCc2c(F)cc(F)cc21	-7	-4
73	Cc1ccc(O)c(CN2CCCn3cccc3C2c2ccc(Cl)cc2)c1 (stereo not given)	21	19
74	COc1ccc(NC(=O)C(C)n2cccn2)cc1NC(=O)c1ccccc1 (stereo not given)	-6	-2
75	COC(=O)Cn1c(SCCOc2cccc(OC)c2)nc2ccccc21	10	3
76	Cc1cc(C)c2c(c1)/C(=N\N1CCCCC1)C(=O)N2	17	-1
77	O=C(Nc1cc(Cl)ccc1Cl)c1ccc(S(=O)(=O)N2CCCCC2)cc1	-4	0
78	Cc1cc(C(C)(C)C)oc1C(=O)N1CCNCC1	-3	1
79	CCC(NC(=O)c1cc(Br)cnc1Cl)c1ncn[nH]1 (stereo not given)	-6	-4
80	CN1C(=O)[C@]2(C)[C@H](c3ccccc31)[C@@H](C(N)=O)CN2C(=O)OCC(C)(C)C	20	6
81	N#Cc1ccc(S(=O)(=O)NC2CC3CCC(C2)N3Cc2ccc3c(c2)OCO3)cc1 (stereo not given)	17	4
82	Cn1c(-c2ccccc2)c[nH]c1=S	-2&-17	2&-13
83	COc1cccc(-c2ccc(NC(=O)C3CCCN(Cc4cnc(N(C)C)s4)C3)cc2)c1 (stereo not given)	7&8	15&9
84	Cc1cccc(-n2c(Cc3ccccc3)nnc2SCCCC(=O)N2CCN(C(=O)c3cc(C(F)(F)F)cc(C(F)(F)F)c3)C(C)C2)c1 (stereo not given)	26	18
85	Cc1nc(-c2ccccc2)sc1C(=O)NCCCn1nc(-c2ccco2)ccc1=O	-7	-5
86	Cc1cc(-n2nc(C)cc2C)n2nc(C)c(-c3ccccc3)c2n1	-3	-1
87	COCc1ccc(C(=O)N(Cc2ccccc2Cl)C(C)C)o1	17	26
88	COCCn1c(=O)c2c(nc3n2CCCN3c2ccc(Cl)cc2)n(C)c1=O	2	4
89	CCC(C(=O)NC(C)c1nnc(SCc2cccc(OC)c2)n1-c1cc(Cl)ccc1Cl)c1ccccc1 (stereo not given)	16	13
90	CC(C)Oc1nc(-c2cccc(F)c2)n(-c2ccc(NC(=O)CCCCl)cc2)n1	20	13
91	Cc1ccc(F)cc1NC(=O)CNC(=O)c1cccc(-c2ncc[nH]2)c1	5	1
92	CC(C)CC(C)N(c1ccc2[nH]ccc2c1)S(C)(=O)=O (stereo not given)	5	7
93	CCOC(=O)c1cc(Cc2ccccc2)sc1NC(=O)COc1ccc(Cl)cc1	9	13

Ordered by count of non-hydrogen atoms (ascending): part of the list above
item	Structure	NPYLR7 ag max-min	NPYLR7 ag
48	CCCc1noc(C(C)Nc2ccc(-c3csc(C)n3)cc2)n1 (stereo not given)	7	17
13	Cc1ccsc1CNc1cccc(C(=O)N2CCn3cncc3C2)c1	-6	-4
9	Cc1ccc(S(=O)(=O)Nc2cccc(-c3ccc4nnc(C)n4n3)c2)s1	-8	-13
65	Cn1ccn2ncc(C(=O)N3CCn4nc(C(=O)N5CCCC5)cc4C3)c12	-12	-8
29	CN(C)c1ccc(NC(=O)C2C[C@H]2c2ccccc2)cc1C(=O)NC1CCCCC1 (stereo not given in full)	-7	-5
31	O=C(c1nnc2n1CCN(C(=O)C(c1ccccc1)c1ccccc1)C2)N1CCOCC1	1	2

Five compounds picked at random from the list so far, as already listed:
item	Structure	NPYLR7 ag max-min	NPYLR7 ag
61	Cc1cccc(NS(=O)(=O)c2ccc(Cl)c(C(=O)Nc3ccccc3C(=O)O)c2)c1	-33	-30
84	Cc1cccc(-n2c(Cc3ccccc3)nnc2SCCCC(=O)N2CCN(C(=O)c3cc(C(F)(F)F)cc(C(F)(F)F)c3)C(C)C2)c1 (stereo not given)	26	18
68	COc1ccc(N2CCN(C(=O)C3CC=CCC3C(=O)NC(c3ccccc3)c3ccccc3)CC2)cc1 (stereo not given)	-13	-6
81	N#Cc1ccc(S(=O)(=O)NC2CC3CCC(C2)N3Cc2ccc3c(c2)OCO3)cc1 (stereo not given)	17	4
80	CN1C(=O)[C@]2(C)[C@H](c3ccccc31)[C@@H](C(N)=O)CN2C(=O)OCC(C)(C)C	20	6

Source: PubChem (Fisher Drug Discovery Resource Center)
